From PubChem BioAssay
FGF22 binding – shifts melting point of recombinant human FGF22; AID 651658; hit rate 1.5% among 340,000; recombinant FGF22 thermal shift, SYPRO orange fluorescence; percent of sucrose octasulfate shift, DMSO zero; Q9HCT0; calls only at 9.99 µM;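 active = melting point raised past a set limit in the mean and every replicate; inconclusive = no clear call; three in four hits are not shown here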
Target sequence (Q9HCT0 whole entry, looked up): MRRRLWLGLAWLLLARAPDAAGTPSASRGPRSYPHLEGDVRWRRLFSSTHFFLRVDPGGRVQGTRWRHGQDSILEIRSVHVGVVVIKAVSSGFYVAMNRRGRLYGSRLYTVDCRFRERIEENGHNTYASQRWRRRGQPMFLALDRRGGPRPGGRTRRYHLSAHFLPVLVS
E coli growth – E. coli growth inhibition; OD600 absorbance (test concentration not listed); hit rate 0.21% among 330,000; Escherichia coli growth, OD600, 23 h; hits give low values;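 active = OD600 absorbance below the run mean of sample wells minus 3.6 SD, in any replicate, cut at about 0.56 in these data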;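 note: stock transfer was 300 nL into about 60 µL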
Vif TR-FRET – inhibitors of Vif binding to APOBEC3G peptide, primary screen, biochemical, TR-FRET, GST-Vif 1-94, biotin-A3G peptide, dose response retest (AID 1117319). TR-FRET GST-Vif / biotin-A3G peptide binding; higher % means a stronger effect; test concentration not given here; strong numbers were not always called active. one-dose inhibition, %; IC50 in µM for titrated hits. hit rate 0.57% among 260,000;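 active = above the screen mean plus three standard deviations and confirmed in dose response; inconclusive = results disagree or hit not tested in dose response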;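 note: Vif residues 1-94 fused to GST binding biotinylated APOBEC3G peptide 110-148; 0% = full assay without inhibitor and 100% = GST in place of GST-Vif; retest series ran down from 100 µM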
ALR inh – inhibitors of human sulfhydryl oxidase ALR. P55789. purified ALR, DTT oxidation, H2O2 HRP-luminol luminescence. inhibition, % (concentration not given with the values). hit rate 3.8% among 290,000. AID 485317;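 active = mean and each replicate at 75% or more; inconclusive = only one of the two met; inactive = neither met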;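 note: stock transfer was 7.5 nL into about 7.5 µL; 0% = neutral wells and 100% = wells with inactivated enzyme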
Target sequence (P55789 whole entry, looked up): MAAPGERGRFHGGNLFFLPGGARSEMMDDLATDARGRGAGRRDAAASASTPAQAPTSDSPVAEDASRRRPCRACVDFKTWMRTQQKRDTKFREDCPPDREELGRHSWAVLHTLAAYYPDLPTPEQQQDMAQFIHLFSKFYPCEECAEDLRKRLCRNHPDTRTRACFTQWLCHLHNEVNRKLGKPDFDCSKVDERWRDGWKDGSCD
HNF4A DNA FP – change in binding of human HNF4 alpha to DNA | hit rate 0.3% among 360,000 | AID 1224865 | HNF4a-FITC DNA binding, fluorescence polarization, 1 h | activity change, % at 10 µM | P41235; in the data active = activity change above about 30%, passing the limit was not always enough;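 note: controls were the assay level and a saturating level of protein; the project sought stronger binding though the title names inhibitors; some compounds called inactive have numbers as strong as hits; positive values seem to mean higher polarization but the record does not say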
rRNA inh HTS – inhibits bacterial ribosomal RNA function over humanized ribosomes; E. coli WT GFP vs humanized-ribosome RFP mutants, fluorescence, 24 h; hits give low values; DMSO median 0, no signal -100; GFP signal change (wild-type ribosome), % (test concentration not listed); hit rate 1.6% among 350,000; AID 720706;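 active = significant combined selectivity score with lowered wild-type GFP, culture density cut under 30%, mutant RFP and density less affected; inactive = any of these conditions unmet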; note: one replicate is shown; some compounds called inactive have numbers as strong as hits
MLL AF4-AF9 inh – inhibitors of human MLL-AF4/AF9 interaction. AlphaScreen, biotin-AF4 peptide binding to FLAG-AF9. hit rate 0.47% among 350,000. P42568. inhibition, % at 10 µM;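 active = every replicate reaching a set inhibition limit, whatever the replicate mean, cut at about 25% in these data; inconclusive = mean inhibition reaches that limit but some replicates miss it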;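 note: 0% = plate neutral control median and 100% = total signal loss; the record names both 10 and 1 µM as test concentration; the first replicate is given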
Target sequence (P42568 whole entry, looked up): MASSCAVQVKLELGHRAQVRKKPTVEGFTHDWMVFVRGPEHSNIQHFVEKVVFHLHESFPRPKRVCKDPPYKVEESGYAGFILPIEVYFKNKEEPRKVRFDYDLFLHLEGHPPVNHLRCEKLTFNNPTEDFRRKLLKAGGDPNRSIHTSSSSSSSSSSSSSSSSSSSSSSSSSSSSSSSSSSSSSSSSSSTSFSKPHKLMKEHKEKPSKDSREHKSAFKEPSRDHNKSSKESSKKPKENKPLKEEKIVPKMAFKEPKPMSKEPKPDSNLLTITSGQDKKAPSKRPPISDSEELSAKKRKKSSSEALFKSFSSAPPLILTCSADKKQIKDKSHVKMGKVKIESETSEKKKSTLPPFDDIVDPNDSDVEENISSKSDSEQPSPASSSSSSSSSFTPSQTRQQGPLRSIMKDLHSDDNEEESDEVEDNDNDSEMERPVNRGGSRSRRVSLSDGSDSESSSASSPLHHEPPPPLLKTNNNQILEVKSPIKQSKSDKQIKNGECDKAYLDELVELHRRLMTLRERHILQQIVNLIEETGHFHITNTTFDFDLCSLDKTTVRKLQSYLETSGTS
rRNA inh HTS OD600 – second read-out of rRNA inh HTS, no call of its own (marks repeat the call); OD600 change, %; measured here: OD600 growth;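 optical density of the mix in the first replicate; 0 = DMSO median and -100 = no signal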
rRNA inh HTS RFP – further read-out of rRNA inh HTS, marked with its call; RFP signal change, %; measured here: RFP humanized mutant strains;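 first replicate; 0 = DMSO median and -100 = no signal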
Numbers without * were called inactive; i = inactive; ? = inconclusive; . = no result given; & = joins results of further samples; ! = repeats disagree.

Under each structure – FGF22 binding	rRNA inh HTS OD600	ALR inh	HNF4A DNA FP	rRNA inh HTS RFP	MLL AF4-AF9 inh	Vif TR-FRET	E coli growth	rRNA inh HTS
COc1ccc(-c2ccccc2C2=CC(=O)CC(C)(C)C2=O)cc1
→ i	-8	.	3.6	-2.0	4.9	-3%	.	-9
Nc1ccc2c(c1)C(=O)c1cc([N+](=O)[O-])ccc1-2
→ i	10	.	-3.5	-5.9	2.1	-3%	0.68	0
CCC(=O)N(Cc1cc2cc(OC)ccc2[nH]c1=O)c1ccc(C)cc1C
→ .	.	-21	3.2	.	.	1%	0.69	.
O=C(C[C@H]1CC[C@@H]2[C@H](COC[C@@H](O)CN2C(=O)C2CC2)O1)NCc1ccccc1Cl
→ i	8&-4	.	5.6	1.4&-0.3	-3.0&0.3	.	.	-2&4
COc1cc2c(cc1OC)C(c1cc3cc(C)ccc3[nH]c1=O)N(C(=O)c1ccco1)CC2 (centres undefined)
→ i	-10	-4	-0.3	7.3	5.4	.	0.65	-2
COc1ccccc1NC(=O)N1CCc2[nH]c3ccc(Cl)cc3c2C1
→ .	.	-5	-3.2	.	-0.1	4%	0.72	.
Cc1ccc(F)c(NC(=O)/C(C#N)=C(\O)c2ccc(C(C)(C)C)cc2)c1
→ i	-81	63	1.0	-22	-1.5	.	0.68	-55
CC(C)CCN1CCN(Cc2cc3ccccc3[nH]2)CC1CCO (centres undefined)
→ i	11	-22	1.1	2.7	-6.8	.	0.7	8
Cc1ccc(S(=O)(=O)N[C@H]2C=C[C@H](CC(=O)N3CCC(Cc4ccccc4)CC3)O[C@@H]2CO)cc1
→ i	-58	.	.	34	2.0	.	.	-16
O=C(/C=C/c1ccc(O)c(O)c1)c1ccccc1O
→ i	-1.7*	100*	-5.2	-7.7*	5.9	13%	0.63	-32*
CCNc1nc(NCC)nc(N/N=C/c2ccc(Br)cc2)n1
→ i	0	-2	0.3	11	8.1	-12%	.	-1
CCOCCCNC(=O)c1ccc2c(=O)n(CCCOCC)c(=S)[nH]c2c1
→ .	5	4	-2.2	0.2	-6.7	2%	0.67	-4
CCN(CC)C(=O)C(C)N(C#N)c1nc(SC)nc(N(C)C)n1 (centres undefined)
→ .	.	-3	-1.0	.	.	-3%	0.72	.
N#CC1=C(N)Oc2n[nH]c(-c3ccc(F)cc3)c2C1c1cccc(OC(=O)N2CCOCC2)c1 (centres undefined)
→ .	.	10	0.7	.	.	19%	0.74	.
Cc1cc(OCC(=O)O/N=C(\N)c2ccccc2)ccc1Cl
→ .	.	-27	1.5	.	.	.	0.67	.

Just rRNA inh HTS, for 2 of the compounds above:
Compound	rRNA inh HTS
O=C(/C=C/c1ccc(O)c(O)c1)c1ccccc1O	-32*
COc1ccc(-c2ccccc2C2=CC(=O)CC(C)(C)C2=O)cc1	-9

Continuation.
Under each structure – FGF22 binding	rRNA inh HTS OD600	ALR inh	HNF4A DNA FP	rRNA inh HTS RFP	MLL AF4-AF9 inh	Vif TR-FRET	E coli growth	rRNA inh HTS
CCOc1ccc(CCNC(=O)c2ccccc2OCc2c(C)noc2C)cc1OCC
→ i	0	-9	-0.2	-2.0	2.1	1%	0.63	4
O=C(Cc1cccnc1)N1CC(=O)N2[C@H](C1)[C@@H](c1ccc(/C=C/c3ccccc3)cc1)[C@@H]2CO
→ i	-12	.	.	1.8	7.2	.	.	-6
CCC(=O)Nc1ccc2c(c1)OC[C@@H](C)N(C(=O)CN1CCOCC1)C[C@@H](C)[C@H](OC)CN(C)C2=O
→ i	7	.	.	1.7	-1.3	.	.	2
CC(C(=O)Nc1ccc(C#N)cc1)N(C)CC(=O)Nc1cccc(F)c1 (centres undefined)
→ .	5	4	0.5	-0.3	-2.3	-8%	0.66	4
O=C(C[C@@H]1C[C@@H]2c3cc(NC(=O)Nc4ccc(C(F)(F)F)cc4)ccc3O[C@@H]2[C@@H](CO)O1)NCc1ccc(Cl)cc1
→ i	0	.	.	-1.3	-4.0	.	.	3
Cc1noc(C)c1S(=O)(=O)Nc1ccc2c(c1)CC(=O)N([C@@H](C)CO)C[C@@H](C)[C@H](CN(C)C(=O)Nc1ccc(F)cc1)O2
→ i	13	.	.	-0.6	6.5	.	.	3
Cc1ccc(N(CCC#N)C(=O)CSc2ccc3c(c2)OCCO3)cc1
→ .	.	99*	3.7	.	.	14%	0.71	.
O=C(Cc1ccc(Br)cc1)NCCc1ccc(Cl)cc1Cl
→ .	.	-3	-0.3	.	.	.	0.73	.
Nc1cccc2c1C(=O)N(CC(=O)NC13CC4CC(CC(C4)C1)C3)C2=O
→ .	11	-1	-9.6	1.9	-1.1	-4%	0.67	17
CN(C)c1ccnc2c[cH-]cc12.[Fe].c1ccc(-[c-]2[c-](-c3ccccc3)[c-](-c3ccccc3)[c-](-c3ccccc3)[c-]2-c2ccccc2)cc1 (centres undefined)
→ i	18&22	9&0	5.4&0.1	16&19	29*!	10%&3%	0.71&0.76	34&21
COCCn1cnnc1SCC(=O)c1ccc(S(=O)(=O)N2CCCC2)cc1
→ .	.	87*	0.5	.	.	?	0.74	.
Cc1onc(-c2c(Cl)cccc2Cl)c1NC(=O)NN(C)c1ccc([N+](=O)[O-])cn1
→ i	11	-12	-0.6	-0.5	2.6	-3%	0.65	3
CN1C(=O)c2cc(NC(=O)C3CCOCC3)ccc2OC[C@@H]2O[C@H](CC(=O)NCCc3ccncc3)CC[C@@H]21
→ i	7	.	.	-0.2	0.3	.	.	6
O=C(CNCc1ccc(Cl)cc1)Nc1ccc(C(=O)N2CCCCCC2)cc1
→ i	-21*	-3	-4.6	-1.7*	3.0	-9%	0.63	-30*
COC(=O)CS(=O)(=O)c1cccc2cccnc12
→ i	11	-6	4.6	0.3	-0.7	?	0.73	7

Going on with the list.
Under each structure – FGF22 binding	rRNA inh HTS OD600	ALR inh	HNF4A DNA FP	rRNA inh HTS RFP	MLL AF4-AF9 inh	Vif TR-FRET	E coli growth	rRNA inh HTS
COc1ccc2c3c(n(C)c2c1)[C@@H](CO)N(C(=O)Nc1ccc(F)cc1)CC31CN(C(=O)c2ccc3c(c2)OCO3)C1
→ i	-2	.	.	7.9	-0.1	.	.	2
COc1ccccc1CNC(=O)c1ccc(NC2=NC3CS(=O)(=O)CC3S2)cc1 (centres undefined)
→ i	9	-5	2.4	0.2	-0.4	.	0.69	19
COc1ccc(S(=O)(=O)N2CCN(C(=O)c3cc(C)on3)CC2)cc1
→ i	0	1	-2.4	-2.7	2.3	74%	0.67	6
COc1ccc(NC(=O)N(C)C[C@H]2Oc3ccc(NC(=O)C4CC4)cc3CC(=O)N([C@H](C)CO)C[C@H]2C)cc1
→ i	-1	.	.	-0.8	-12	.	.	3
Cc1ccc(S(=O)(=O)N(Cc2nccn2C)C(C)C)cc1
→ .	.	.	4.7	.	.	0%	0.65	.
Cc1cc(C)n(-c2ccc(C(=O)N3CC(C)OC(C)C3)cc2)n1 (centres undefined)
→ i	5	-2	-1.5	0.9	-0.2	0%	0.65	18
CCCCCCCCCCCCN1[C@@H](CC(=O)O)c2cc(C(F)(F)F)ccc2S1(=O)=O
→ i	10	98*	-8.1	25	-8.0	.	.	10
COc1cc(C(=O)NNC(=O)c2cc(C)[nH]n2)cc(OC)c1OC
→ i	16	-1	-0.3	1.0	-0.3	9%	0.68	15
CCOc1ncccc1C(=O)OCC(=O)NC1CC1
→ i	20	-4	0.8	2.3	-0.1	.	0.64	23
O=C(CSc1nccc(=O)[nH]1)Nc1ccc2ccccc2c1
→ i	-12	12	3.4	-2.3	0.3	.	0.64	-13
Nc1ccn([C@@H]2O[C@H](CNC(=O)[C@@H](N)CSCc3ccccc3)[C@@H](O)[C@H]2O)c(=O)n1
→ i	10	.	3.5	1.6	-1.5	-2%	.	7
COCCN(C(=O)CSc1nnc(-c2ccc(C(C)(C)C)cc2)n1N)c1c(N)n(CC(C)C)c(=O)[nH]c1=O
→ i	2	.	-2.4	-0.3	-12	2%	0.66	-2
COc1ccc(S(=O)(=O)NCC(c2cccnc2)N2CCN(c3ccc(F)cc3)CC2)cc1C (centres undefined)
→ .	.	.	1.6	.	.	10%	0.77	.
Cc1ccc(OCc2cc(C(=O)N3CCc4[nH]cnc4C3c3ccccn3)no2)cc1C (centres undefined)
→ i	-13	4	0.3	15	17	-6%	0.65	-12
CC(=O)C1C(c2ccc(Cl)cc2)c2c(noc2C)CC1(C)O (centres undefined)
→ i	-4	-1	0.9	-2.9	-0.7	8%	0.62	4

Other entries follow.
Under each structure – FGF22 binding	rRNA inh HTS OD600	ALR inh	HNF4A DNA FP	rRNA inh HTS RFP	MLL AF4-AF9 inh	Vif TR-FRET	E coli growth	rRNA inh HTS
Cc1nnc(SCc2cccc([N+](=O)[O-])c2)o1
→ i	14	-39	1.1	-2.4	0.0	.	0.72	14
C[C@H](CO)N1C[C@H](C)[C@H](CN(C)C(=O)Nc2ccc(F)cc2)Oc2ccc(NC(=O)C3CC3)cc2CC1=O
→ i	10	.	.	-1.2	-13	.	.	3
O=C(COC(=O)c1ccc2c(c1)OCO2)Nc1ncc(Cl)cc1Cl
→ i	9	-12	0.9	0.7	-2.2	-37%	0.67	13
O=C(Nc1cccc(C(F)(F)F)c1)OCCN1CCN(Cc2ccccc2)CCC1=O
→ i	-61	-7	0.0	-10	.	1%	0.65	-44
O=c1[nH][nH]cc1C=Nc1ccccc1O
→ .	.	-6	4.7	.	.	1%	0.71	.
Cn1c(CCN2CCN(c3ccccn3)CC2)nc2cc(NC(=O)COc3ccccc3)ccc21
→ i	-13	-16	1.4	16	1.6	.	0.65	-2
CCC(C)OC(=O)C[N+](C)(C)CCOC1CC2CCC1(C)C2(C)C (centres undefined)
→ i	-80	2	-1.2	-14	0.0	-2%	0.67	-54
COC(=O)CCN1CCc2cc(N=Nc3ccc([N+](=O)[O-])cc3)ccc21
→ i	12	-3	-0.2	1.8	-0.2	.	0.72	12
CCN(C(=O)COC(=O)c1cc(OC)ccc1Br)C1CCS(=O)(=O)C1 (centres undefined)
→ i	12	28	0.9	4.0	1.1	18%	0.63	21
Cc1ccc(C2=Nc3ccccc3NC(C)(c3ccc(C)o3)C2)o1 (centres undefined)
→ .	.	53	-0.2	.	.	32%	0.73	.
Cc1cc2nc3n(c2cc1C)CC1CC(C(=O)NCc2cccc(C(F)(F)F)c2)N(C)C31 (centres undefined)
→ i	6	.	5.1	-5.1	1.6	6%	0.69	7
O=C(Nc1ccccc1)OCCCCCOC(=O)Nc1ccccc1
→ i	6	.	-2.9	1.4	-0.7	.	0.74	15

A portion of the library; count on the stated rates, not on these rows.
